A1 inh – inhibitors of the anti-apoptotic protein A1, read as caspase activation; AID 2462; actives 0.066% (n = 330,000); MEF A1-2A-BIM cells, Caspase-Glo 3/7 luminescence, 3 h; percent of clofoctol response, vehicle zero; caspase activation, % (concentration not given with the values);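 active = over half of replicate activation scores above 10%, or exactly half above 10 with the replicate mean above 10; inconclusive = replicate mean below 10 yet half the replicates above 10; inactive = over half of replicates below 10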;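 note: wells of about 30 µL received 50 nL stock; many hits fall short of the cut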
HNF4A DNA FP – change in binding of human HNF4 alpha to DNA; P41235; HNF4a-FITC DNA binding, fluorescence polarization, 1 h; activity change, % at 10 µM; actives 0.3% (n = 360,000); AID 1224865; in the data active = activity change above about 30%, passing the limit was not always enough;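 note: controls were the assay level and a saturating level of protein; the project sought stronger binding though the title names inhibitors; some compounds called inactive have numbers as strong as hits; positive values seem to mean higher polarization but the record does not say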
Beta2AR agonist – agonists of human beta-2 adrenergic receptor inducing internalization. AID 504454. actives 0.43% (n = 340,000). P07550. Am2.2-beta2AR cells, FAP receptor internalization, flow cytometry; reference of the scale not given here. response, % (concentration not given with the values);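 active = response above a set limit, near 3 SD of response in nonfluorescent compounds, cut at about 42% in these data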;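 note: stock transfer was 100 nL into about 11 µL; a reference agonist was the positive control; negative values mostly stem from fluorescent compounds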
Ecoli growth – inhibitors of Escherichia coli growth. actives 0.21% (n = 330,000). OD600, 23 h; active compounds read low. OD600 absorbance (test concentration not listed);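 active = OD600 absorbance below the run mean of sample wells minus 3.6 SD, in any replicate, cut at about 0.56 in these data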;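 note: stock transfer was 300 nL into about 60 µL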
UCH37 DUB inh – blocks the human deubiquitinase UCH37. purified proteasome/UCH37, Ub-AMC cleavage fluorescence. inhibition, % (no concentration beside the values). actives 0.33% (n = 330,000). AID 588478;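 active = mean of two replicates above 20%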;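 note: 0% = compound-free wells with enzyme and 100% = wells lacking proteasome; stock transfer was 100 nL into about 20 µL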
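Signal – fluorescence, ex 355 nm, em 460 nm · System – Proteasome-bound UCH37 · Input – 0.15 nM proteasome as dispensed · Timing – 30 min preincubation with enzyme, 25 min cleavage at room temperature · Read-out basis – percent inhibition of cleavage signal versus uninhibited and no-proteasome wells · Medium – Tris-HCl pH 7.4 with ATP-MgCl2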
Vif TR-FRET – HIV-1 Vif–A3G interaction blockers – biochemical, TR-FRET, GST-Vif 1-94, biotin-A3G peptide, dose response retest, primary screen (AID 1117319); TR-FRET GST-Vif / biotin-A3G peptide binding; higher % means a stronger effect; test concentration not given here; strong numbers were not always called active; inhibition, %; hits with a dose series show IC50 in µM; actives 0.57% (n = 260,000);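 active = above the screen mean plus three standard deviations and confirmed in dose response; inconclusive = results disagree or hit not tested in dose response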;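 note: Vif residues 1-94 fused to GST binding biotinylated APOBEC3G peptide 110-148; 0% = full assay without inhibitor and 100% = GST in place of GST-Vif; retest series ran down from 100 µM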
LANA-H2A inh – blocks KSHV LANA binding to histone H2A/H2B. Q9QR71. cell-free LANA-H2A/H2B peptide, fluorescence polarization. inhibition, % (concentration not given with the values). actives 0.6% (n = 320,000); in the data active = inhibition mostly above about 10%, no sharp cut-off; inactive = mostly below about 6.7%;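 note: stock transfer was 7.5 nL into about 10 µL; 0% = median of vehicle wells and 100% = median of positive control wells; one replicate is shown; the record names a cut of 25% in any replicate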
Target sequence (Q9QR71 whole entry, looked up): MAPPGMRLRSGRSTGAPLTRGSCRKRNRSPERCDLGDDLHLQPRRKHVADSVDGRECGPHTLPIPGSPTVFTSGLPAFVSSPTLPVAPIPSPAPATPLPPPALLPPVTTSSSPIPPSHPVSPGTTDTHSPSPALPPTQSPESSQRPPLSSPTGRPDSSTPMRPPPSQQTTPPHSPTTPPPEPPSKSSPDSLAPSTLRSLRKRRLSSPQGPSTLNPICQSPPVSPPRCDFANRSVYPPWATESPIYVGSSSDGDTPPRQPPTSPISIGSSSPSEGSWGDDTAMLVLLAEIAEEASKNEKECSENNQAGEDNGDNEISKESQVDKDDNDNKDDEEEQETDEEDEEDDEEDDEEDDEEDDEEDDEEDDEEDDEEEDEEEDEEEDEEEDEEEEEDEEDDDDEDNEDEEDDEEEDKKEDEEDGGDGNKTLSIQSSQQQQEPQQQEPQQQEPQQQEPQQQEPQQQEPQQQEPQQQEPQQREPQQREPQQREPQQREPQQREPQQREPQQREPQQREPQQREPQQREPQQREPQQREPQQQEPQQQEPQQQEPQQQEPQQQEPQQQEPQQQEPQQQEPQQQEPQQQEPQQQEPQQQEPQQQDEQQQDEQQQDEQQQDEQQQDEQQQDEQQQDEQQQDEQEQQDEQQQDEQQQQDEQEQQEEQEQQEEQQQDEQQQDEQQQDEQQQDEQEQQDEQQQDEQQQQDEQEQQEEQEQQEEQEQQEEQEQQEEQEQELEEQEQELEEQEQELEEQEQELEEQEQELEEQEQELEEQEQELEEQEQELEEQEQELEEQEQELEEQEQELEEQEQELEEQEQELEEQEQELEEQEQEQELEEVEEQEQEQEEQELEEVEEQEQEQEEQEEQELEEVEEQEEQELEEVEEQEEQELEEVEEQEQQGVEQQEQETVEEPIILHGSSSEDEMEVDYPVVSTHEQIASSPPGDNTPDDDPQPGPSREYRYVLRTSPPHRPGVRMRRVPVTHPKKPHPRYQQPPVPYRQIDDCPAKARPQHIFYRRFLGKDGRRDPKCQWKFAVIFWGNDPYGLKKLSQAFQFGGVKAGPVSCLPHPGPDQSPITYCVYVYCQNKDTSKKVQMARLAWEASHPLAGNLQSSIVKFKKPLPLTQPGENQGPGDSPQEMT
* hit, by the source's call; ? = inconclusive; nt = not tested or not shown; & = joins results of further samples.

SMILES	A1 inh	HNF4A DNA FP	Beta2AR agonist	Ecoli growth	UCH37 DUB inh	Vif TR-FRET	LANA-H2A inh
COc1ccc(-c2nc(CN3CCN(c4cc(C)nc(C)c4)CC3)c(C)o2)c2ccccc12	0.8	4.0	34	0.64	-238	5%	1.5
O=C(C1CCC(CNc2c(N3CCCCC3)c(=O)c2=O)CC1)N1CCCC1 (stereo not drawn)	-0.1	0.6	-4	0.64	0.4	-3%	-2.7
COc1cc(NC(=O)COC(=O)c2cnccn2)c(C)cc1[N+](=O)[O-]	0.1	4.6	9	0.67	9.3	13%	2.5
COc1cc(NC(=O)CCC(=O)N2CCN(S(=O)(=O)c3ccc(C)cc3)CC2)cc(OC)c1	nt	4.2	0	0.68	3.9	nt	nt
CCOc1cc(N2CCOCC2)c(OCC)cc1NC(=O)C1CC(=O)N(c2ccc(C)cc2)C1 (stereo not drawn)	0.6	-0.3	5	0.7	0.1	-3%	nt
COc1ccc(-c2nn(-c3ccccc3)cc2/C=C/C(=O)N2CCOCC2)cc1OC	-0.4	-0.3	-19	0.63	-15	-3%	1.3
O=C(NCc1ccccc1CN1CCCC1)C1CCN(S(=O)(=O)c2ccc(Cl)cc2)CC1	-0.3	5.0	9	0.68	4.1	-17%	3.7
Cc1ccc(C2CC(=O)c3cnn(-c4nc(C)cc(C)n4)c3C2)cc1 (stereo not drawn)	0.1	-2.1	2	0.69	2.7	nt	4.7
O=C(Nc1cccc(Br)c1)c1ccc(Cl)c(S(=O)(=O)N2CCOCC2)c1	-0.7	2.4	9	0.69	0.0	0%	4.1
CCN(CC)C(=O)c1nc[nH]c1C(=O)N1CCN(c2ccccc2)CC1	2.1	1.9	2	0.64	1.7	nt	-1.1
Cc1c(C)c2ccc(OC(C)C(=O)N3C[C@H]4C[C@@H](C3)c3cccc(=O)n3C4)c(C)c2oc1=O (stereo partly drawn)	0.5	2.5	-6	0.73	-16	nt	-3.6
Cc1cc(C(=O)Cn2nnc(-c3ccc(Cl)cc3)n2)c(C)n1-c1ccccc1	0.2	0.5	3	0.75	1.7	nt	0.7
O=C(CSc1nnc(-c2ccccc2Br)o1)Nc1nncs1	0.3	-0.1	-11	0.71	5.9	-18%	2.5
CC(C)n1cnnc1SCC(=O)NCC(=O)Nc1ccc(F)cc1	-0.6	1.8	3	0.69	3.8	4%	-3.6
COc1ccccc1-c1noc(CCC(=O)NC2CCCC2)n1	0.3	-1.8	4	0.72	4.3	0%	2.4
COc1ccc(/C(C)=N/NC(=O)c2sccc2-n2cccc2)cc1	-0.4	0.2	-7	nt	nt	7%	0.7
CCOC(=O)N1CCN(Cc2nc3ccc([N+](=O)[O-])cc3c(=O)n2-c2cccc(OC)c2)CC1	-0.1	1.9	-7	0.7	4.3	14%	-4.6
COc1cc2[nH]c3ccccc3c2cc1C	0.7	4.8	-1	0.74	1.9	nt	-3.2
CC1=CC(C)(C)NC(=S)N1c1ccc2ccccc2c1	0.2	3.3&-3.7	3&-2	0.69&0.67	-9.2&0.4	7%&-3%	2.8
O=C(CNC(=O)c1ccc(Cl)cc1)NC(CO)c1ccccc1 (stereo not drawn)	-0.2	0.4	-11	0.64	4.2	nt	3.4
CCOC(=O)c1ccc(NC(=O)CC2C(=O)N(c3ccc(F)cc3)C(=O)N2CCC(C)C)cc1 (stereo not drawn)	0.1	1.5	4	0.73	5.0	3%	1.6
COc1ccc(S(=O)(=O)N2CCN(C(=O)[C@H](Cc3ccccc3)NC(=O)c3ccco3)CC2)cc1	0.0	2.8	-8	0.71	2.2	-3%	-0.7
COc1cccc(CNC(=O)C2CCN(S(=O)(=O)c3ccc4c(c3)CCC(=O)N4)CC2)c1	0.2	2.0	4	0.75	2.0	3%	-1.2
COc1c2c(nc3occc13)C(CC=C(C)C)(OC)C(OC(C)=O)CC2 (stereo not drawn)	0.2	-0.7	-1	0.69	1.9	-4%	2.4
O=S(=O)(Nc1ccc(Cc2ccncc2)cc1)c1ccc(Cl)c(Cl)c1	0.1	6.8	14	0.66	3.4	3%	5.3

Retrieved by structure from the entries so far, 3 records:
SMILES	A1 inh	HNF4A DNA FP	Beta2AR agonist	Ecoli growth	UCH37 DUB inh	Vif TR-FRET	LANA-H2A inh
COc1ccc(/C(C)=N/NC(=O)c2sccc2-n2cccc2)cc1	-0.4	0.2	-7	nt	nt	7%	0.7
CCOC(=O)c1ccc(NC(=O)CC2C(=O)N(c3ccc(F)cc3)C(=O)N2CCC(C)C)cc1 (stereo not drawn)	0.1	1.5	4	0.73	5.0	3%	1.6
COc1cc(NC(=O)COC(=O)c2cnccn2)c(C)cc1[N+](=O)[O-]	0.1	4.6	9	0.67	9.3	13%	2.5

(more compounds)
SMILES	A1 inh	HNF4A DNA FP	Beta2AR agonist	Ecoli growth	UCH37 DUB inh	Vif TR-FRET	LANA-H2A inh
COc1ccccc1OCCSc1nnc(C)n1-c1ccccc1	-1.1	-3.4	-5	0.71	0.9	3%	0.0
CC1CCC(NC(=O)C2c3ccccc3C(=O)N2Cc2ccc3c(c2)OCO3)CC1 (stereo not drawn)	0.3	-1.3	3	0.7	0.6	-7%	5.6
COc1ccc2c(c1)-c1nc(NC(=O)c3ccco3)sc1CC2	-0.4	0.1	3	0.67	-2.8	nt	0.1
NNC(=O)c1ccc(COc2ccc(Br)cc2)o1	0.4	-0.3	-1	0.66	2.7	3%	13
O=C(N/N=C\c1ccccn1)c1ccccc1O	-0.2	3.4	25	nt	nt	nt	0.4
Cc1nn2c(C(F)(F)F)c3c(nc2c1-c1ccccc1)CCC3	0.1	-4.3	-4	0.74	4.9	6%	-3.1
O=C(Nc1cc(Cl)ccc1O)C1CC(c2ccccc2O)=NO1 (stereo not drawn)	0.1	-0.4	-24	0.55	3.4	nt	-1.8
O=C(NCCCN1CCCC1=O)C1CCN(S(=O)(=O)c2cccc(C(F)(F)F)c2)CC1	0.7	3.5	5	0.64	1.2	1%	-3.5
O=C(NCc1cccc(Br)c1)C1CC2Cn3c(nc4ccccc43)C2N1Cc1ccccc1 (stereo not drawn)	-0.1	2.0	-10	0.71	5.8	nt	3.2
COc1cccc(CNS(=O)(=O)c2ccc3c(c2)CC(C)N3C(=O)C2CC2)c1 (stereo not drawn)	0.0	3.6	-13	0.66	3.6	nt	4.3
Nc1[nH]c2cc([N+](=O)[O-])ccc2c1-c1ccccn1	-0.6	91*	-80	nt	nt	nt	5.0
O=[N+]([O-])c1ccc(N2CCN(CCO)CC2)cc1Sc1ccccn1	-0.1	0.1	-9	0.68	3.8	-8%	1.8
CC(=O)c1ccc(NC(=O)c2ccccc2-c2ccccc2C(=O)O)cc1	1.2	-0.9	1	0.69	2.5	-6%	0.5
CCCCNC(=O)C1Cc2cc(S(=O)(=O)N3CCCCC3)ccc2N1C(C)=O (stereo not drawn)	0.1	0.3	7	0.67	0.8	nt	-2.7
COC(=O)CNc1nc(Cl)nc(Nc2ccc(Cl)cc2)n1	-0.2	-1.8	0	0.69	0.5	3%	-6.1
COc1cccc(-c2ccc(C#N)c(SCC(=O)NCc3ccco3)n2)c1	0.2	-8.3	9	0.72	-23	-4%	-1.2
CN(c1ccccc1)c1nc(N)c([N+](=O)[O-])c(Nc2ccc(F)cc2)n1	-0.4	1.8	9	0.7	2.2	3%	0.8
COc1ccccc1C(=O)Nc1nnc(-c2ccc3c(c2)CCCC3)o1	-0.5	3.5	-11	0.7	8.9	0%	-2.8
O=C(NCC1CCCN1S(=O)(=O)c1ccccc1)C(=O)NC1CC1 (stereo not drawn)	0.5	0.1	-18	0.65	0.6	0%	2.6
O=C(COC(=O)Cc1ccc(Cl)cc1)NCCc1ccccc1	1.0	0.6	1	0.67	2.3	12%	7.7
O=C(CCN1C(=O)c2ccccc2C1=O)Nc1ccc(F)cc1	0.2	-1.1	-2	0.69	0.5	6%	1.5
COc1ccc(C(CNCC(O)COc2c(C)ccc(C)c2C)N(C)C)cc1 (stereo not drawn)	2.2	2.7	6	0.67	2.5	-7%	-0.7
Cn1c(=O)c2cc(S(=O)(=O)NCCC(=O)Nc3ccccc3F)ccc2n(C)c1=O	0.3	-2.5	5	0.73	-0.7	-4%	-2.5
CCOC(=O)c1c(S(=O)(=O)NCC2CCN(CCc3cccs3)CC2)c(C)n(C)c1C	0.2	1.3	4	nt	nt	nt	1.2
O=C(O)CC/C(=C\c1cccc(NC(=O)c2ccccc2Cl)c1)c1nc2ccccc2s1	-0.8	2.1	6	0.68	-17	30%	-11
Going on with the list:
SMILES	A1 inh	HNF4A DNA FP	Beta2AR agonist	Ecoli growth	UCH37 DUB inh	Vif TR-FRET	LANA-H2A inh
Cn1nccc1NC(=O)COCC(=O)O	0.6	0.1	0	0.62	2.0	1%	3.7
C/C(=N/NC(=O)CNC(=O)COc1ccccc1)c1ccc(Cl)cc1	-0.9	-3.7	-6	nt	nt	nt	1.0
COc1ccccc1NC(=O)CC1Nc2ccccc2NC1=O (stereo not drawn)	0.1	4.7	-64	0.7	-0.1	17%	1.7
Cc1onc(-c2ccccc2)c1C(=O)NC(CC(=O)O)c1ccc(OC(C)C)cc1 (stereo not drawn)	1.6	-0.3	-10	0.76	4.7	-4%	2.8
Cc1cc(=O)oc(C)c1C(=O)OCC(=O)c1ccc(Br)cc1	-0.5	1.8	-4	0.67	3.7	12%	5.9
O=[N+]([O-])c1ccccc1S(=O)(=O)N1CCCc2ccccc21	-0.4	-4.6	10	0.7	3.7	nt	-2.9
Cc1cc(C)nc(-n2nc(C)cc2Nc2ccccc2)n1	0.8	1.4	-21	0.69	5.8	1%	-5.1
Cc1ccc2c(c1)C(=O)CC1(CCC(C(C)(C)C)CC1)O2 (stereo not drawn)	0.1	-1.7	6	0.65	5.0	8%	-3.3
CN(C)C(=O)NC(O)C(Cl)Cl (stereo not drawn)	0.8	nt	nt	nt	nt	6%	-8.2
CC(C)C[C@H](NC(=O)c1nc[nH]c1C(=O)N[C@@H](CCCCNC(=O)OC(C)(C)C)C(=O)OC(C)(C)C)C(=O)OCc1ccccc1	-0.8	-5.2	-15	nt	4.3	nt	8.2
COc1cccc(-n2c(C)nc3c(cnn3-c3ccc(C)cc3)c2=O)c1	0.7	-0.2	0	0.69	0.9	-1%	2.2
CN1C2Cc3c(n(C)c4ccccc34)C1CC=C2CO (stereo not drawn)	1.8	0.7	-7	0.73	0.4	nt	-1.3
COc1ccccc1C(=O)Nc1cc(-c2ccc(C)cc2)no1	-1.4	1.6	-6	0.63	1.8	-8%	1.5
COc1ccc(C2=NN(CC(=O)Nc3ccccc3C)C(=O)CC2)cc1	1.4	0.5	0	0.68	0.5	nt	2.1
COC(=O)c1ccc(-c2ccc([C@H]3[C@H]4C=CC[C@@H](C)[C@@H]4C(=O)N3Cc3ccccc3)c(F)c2)cc1	-0.1	0.6	5	nt	2.1	-7%	3.7
CCOC(=O)c1c2n(c3ccc(O)cc13)CCC2	-0.7	1.2	-8	0.8	6.1	-4%&1%	1.5
CCOC(=O)C1(Cc2cccc(OC)c2)CCN(CCO)CC1	0.3	-5.7	-2	0.65	0.9	16%	2.9
COc1ccc(S(=O)(=O)N2CCN(C(=O)c3ccco3)CC2)cc1C(C)(C)C	1.4	3.5	-5	0.66	0.8	nt	-2.6
Cc1cc(=O)[nH]c(SCn2nnc3ccccc3c2=O)n1	0.7	1.9	-16	0.73	-1.0	?	-2.9

High-throughput results (PubChem)
